High-throughput results deposited in PubChem BioAssay by National Center for Advancing Translational Sciences (NCATS).
D2 PAM: potentiates the human D2 dopamine receptor allosterically; P14416; DiscoveRx D2 beta-arrestin cells, luminescence, 90 min; 100% = 57 uM dopamine signal; potentiation, % (concentration not given with the values); 360,000 compounds, 0.23% hits; AID 624464; active = potentiation of 50% or more; inconclusive = 30% to 50%; inactive = 30% or less;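 note: tested on top of an EC20 dose of dopamine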
Target sequence (P14416 whole entry, looked up): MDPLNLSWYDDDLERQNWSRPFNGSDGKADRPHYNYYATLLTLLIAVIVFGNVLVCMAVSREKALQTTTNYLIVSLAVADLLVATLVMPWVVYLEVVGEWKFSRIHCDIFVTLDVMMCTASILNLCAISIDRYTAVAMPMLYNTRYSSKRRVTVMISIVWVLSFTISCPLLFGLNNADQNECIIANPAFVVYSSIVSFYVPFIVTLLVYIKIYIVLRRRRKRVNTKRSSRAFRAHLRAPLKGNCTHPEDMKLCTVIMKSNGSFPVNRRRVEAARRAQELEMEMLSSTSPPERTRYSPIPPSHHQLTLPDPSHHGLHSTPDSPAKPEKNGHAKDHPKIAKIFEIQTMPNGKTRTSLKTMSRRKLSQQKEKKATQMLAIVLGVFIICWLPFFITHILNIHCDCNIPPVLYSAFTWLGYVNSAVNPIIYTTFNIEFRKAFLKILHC
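PathHunter D2 cells, attached overnight at 37 deg C, received compound in DMSO plus dopamine at EC20 (50 nM final) for 90 min at 37 deg C. Beta-arrestin recruitment was read as luminescence after 1 h with detection reagent at ambient temperature.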
TRPV1 potentiator: enhances activation of the human vanilloid receptor TRPV1 | Q8NER1 | 320,000 compounds, 0.02% hits | potentiation, % at 8.33 µM | AID 540277 | TRPV1-expressing cells, Fluo-8 calcium influx, capsaicin EC20 potentiation; host cell line not named in the record; control for the full effect not named in the record; active means potentiation above 80%; inconclusive means 30% to 80%; inactive means below 30%; note: 0% is about no effect
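Fluo-8 calcium influx in TRPV1-expressing cells, kinetic read (ex 480/em 520 nm). Compound added and read 3 min for agonist activity, followed by capsaicin at EC20 final and 2 min further read for enhancement.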
TRPML1 ag: activates the human TRPML1 channel. Q9GZU1. TRPML1-expressing cells, Ca2+ dye fluorescence, FDSS; host cell line not named in the record; reference of the full effect not given here. activation, % (test concentration not listed). 410,000 compounds, 0.12% hits; in the data active = activation above about 50%; inconclusive = about 30% to 50%; inactive = below about 30%; note: 0% is about no effect; the text of the record puts the active cut at 80%
Target sequence (Q9GZU1 whole entry, looked up): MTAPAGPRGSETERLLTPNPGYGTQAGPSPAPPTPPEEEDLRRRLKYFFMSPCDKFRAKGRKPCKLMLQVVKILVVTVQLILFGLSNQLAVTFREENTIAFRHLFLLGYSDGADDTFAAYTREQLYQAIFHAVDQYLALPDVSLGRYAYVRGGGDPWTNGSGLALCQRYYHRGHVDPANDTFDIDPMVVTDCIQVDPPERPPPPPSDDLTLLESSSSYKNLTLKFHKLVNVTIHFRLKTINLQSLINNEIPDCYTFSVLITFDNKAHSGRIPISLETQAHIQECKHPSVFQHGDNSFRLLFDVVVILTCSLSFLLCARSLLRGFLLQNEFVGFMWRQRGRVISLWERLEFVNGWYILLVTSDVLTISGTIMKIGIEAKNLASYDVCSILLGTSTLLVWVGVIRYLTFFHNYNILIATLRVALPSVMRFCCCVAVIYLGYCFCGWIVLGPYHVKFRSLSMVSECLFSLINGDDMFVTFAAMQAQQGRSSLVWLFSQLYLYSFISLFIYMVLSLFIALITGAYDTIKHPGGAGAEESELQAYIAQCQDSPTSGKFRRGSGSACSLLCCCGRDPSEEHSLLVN
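Kinetic FDSS Ca2+ read in Tet-induced TRPML1-DL cells (ABD Ca8 dye plus quencher, 45-90 min RT loading): baseline, then compound, then 110 s agonist window; EC80 agonist 54-4 at 4uM final added afterwards for a 110 s antagonist window.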
CtBP-E1A blk: inhibitors of CtBP/E1A interaction; AlphaScreen GST-E1A/His-CtBP binding, 1536-well; stronger effect = lower value; control for the full effect not named in the record; activity change, % (no concentration beside the values); 340,000 compounds, 0.49% hits; in the data active means activity change below about -65%; inconclusive means about -30% to -65%; inactive means above about -30%; note: % is set by controls: 0 for no effect and ±100 for the full control effect
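Protein mix (5X: 125 nM each GST-E1A, His-CtBP) was incubated with pinned compound 2 h at 37 deg C in dark, in 50 mM Tris pH 8.0 buffer with 300 mM NaCl. Glutathione donor and nickel acceptor beads followed; AlphaScreen signal read after 1 h.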
TRPML1 inh: inhibitors of human TRPML1 channel; Q9GZU1; TRPML1-inducible cells, Ca2+ dye fluorescence, FDSS; stronger effect = lower value; inhibition of EC80 agonist-evoked calcium signal; activity change, negative = inhibition, % (test concentration not listed); 390,000 compounds, 0.02% hits; AID 624415; in the data active means activity change below about -50%; inconclusive means about -30% to -50%; inactive means above about -30%;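 note: stimulus is agonist 54-4 at its EC80 concentration; % is set by controls: 0 for no effect and ±100 for the full control effect; compound concentration not given in the record; the text of the record puts the active cut at -80%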
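TRPML1-DL cells, Tet-induced overnight (~16 h, 37 °C) at 1,500 cells/well, were loaded with Ca8 no-wash dye plus quencher for 45-90 min at room temperature. Compounds were pinned during FDSS kinetic reading; agonist 54-4 at EC80 (4 uM final) then added.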
Six1-Eya2 inh: blocks human Six1 binding to Eya2 | Q15475+O00167 | AlphaScreen GST-Six1/His-Eya2 binding, biochemical; stronger effect = lower value; control for the full effect not named in the record | activity change, % (concentration not given with the values) | 360,000 compounds, 0.56% hits | AID 651725; in the data active = activity change below about -65%; inconclusive = about -30% to -65%; inactive = above about -30%; note: % is set by controls: 0 for no effect and ±100 for the full control effect
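Six1/Eya2 binding was read as AlphaScreen signal after compounds were pinned into GST-Six1 plus His-tagged Eya2 (5X stock 250/500 nM) in pH 8.0 Tris/NaCl/TCEP buffer, beads added, then incubated 1 h, 37 C, dark.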
The depositor's hits bear a star; ? = inconclusive; · = no result given. Rows were taken by chance; 0.95% or so of the library scored in one or more.

no.	molecule	D2 PAM	TRPV1 potentiator	TRPML1 ag
1	O=C1C=C(N(CCO)CCO)C2(CCCCC2)O1	-4	-2	-0.6
2	C/C(=N\N=C1\NC(=O)C(CC(=O)Nc2ccc(C)c(Cl)c2)S1)C(C)(C)C (centres undefined)	-8	-1	-0.7
3	COc1ccccc1OCC(=O)Nc1ccccn1	-3	-2	0.6
4	Cc1cc(C)n(C(=O)Cn2nc(C)c(Br)c2C)n1	1	-9	-0.3
5	O=C(CSc1nncn1-c1cccnc1)N1CCOCC1	-1	4	0.6
6	O=C(O)C1=NOC(CNc2ncc(C(F)(F)F)cc2Cl)C1 (centres undefined)	1	-3	-0.4
7	COc1cc2c(cc1OC)C(=O)CC(C)S2 (centres undefined)	-8	8	0.0
8	CCOC(=O)c1ccc(NC(=S)Nc2cccc(C)n2)cc1	1	-7	0.9

no.	CtBP-E1A blk	TRPML1 inh	Six1-Eya2 inh
1	5	4	0
2	-8	-1	3
3	2	-2	7
4	9	-8	-3
5	-3	7	-6
6	7	14	0
7	3	-5	12
8	-10	16	0

The results go on.
no.	molecule	D2 PAM	TRPV1 potentiator	TRPML1 ag
9	FC(F)(F)c1ccc(CN2C[C@@H]3C(c4ccc(Cl)nc4)C4(c5ccccc5)CC3(C4)[C@H]2c2ccccc2)cc1 (some centres undefined)	-32	-13	-0.5
10	Cc1cc2cc(OCC(=O)O)ccc2n1C	-3	12	0.3
11	O=C(Cn1ccc(C(F)(F)F)n1)NNC(=O)c1ccco1	-3	-3	0.1
12	Cc1c(C#N)c(N)nc2c3c(sc12)NC(=O)CC3c1ccc(Cl)cc1 (centres undefined)	-6	-11	0.4
13	C=C(C)COc1ccc(-c2ncncc2Oc2ccc(OC)cc2)c(O)c1	?	12	5.7
14	Cc1cc(C)c(C)c(S(=O)(=O)Nc2cccc(-n3cnnn3)c2)c1C	-6	16	1.1
15	COc1cc(C2/C(=C(/O)c3ccc(F)cc3)C(=O)C(=O)N2CCCC(=O)O)ccc1O (centres undefined)	-9	6	-0.5
16	NC(=O)c1ccc(NC(=O)CCCN2C(=O)c3ccccc3C2=O)cc1	-18	6	-0.3

no.	CtBP-E1A blk	TRPML1 inh	Six1-Eya2 inh
9	6	60	-3
10	3	9	-4
11	-1	0	-6
12	3	25	4
13	-2	35	6
14	3	15	-2
15	-3	0	3
16	9	-2	3

Next compounds
no.	molecule	D2 PAM	TRPV1 potentiator	TRPML1 ag
17	CCOC(=O)c1c(C)[nH]c2c1cc(O)c1ccccc12	?	16	-0.3
18	CC(=O)C(CC(=O)N1CCCC1)C(=O)Nc1ccc(Cl)cc1 (centres undefined)	-25	·	-0.9
19	COC(=O)c1cc(=O)n(Cc2ccc3c(c2)OCO3)c(=Nc2ccccc2)s1	-2	6	1.0
20	Cc1ccc(OCCNC(=O)CNC(=O)c2ccc(C)c(C)c2)cc1	-4	-10	0.4
21	COC1=CC(=O)c2nc(Cl)ccc2C1=O	10	·	-0.7
22	N/C(=N\OC(=O)c1cc(-c2ccccc2)nc2ccccc12)c1ccccn1	7	-4	0.3
23	COCCCn1c(-c2ccccc2Cl)n[nH]c1=S	-4	1	-0.2
24	COc1cccc(-n2c(SCC(N)=O)nnc2-c2ccncc2)c1	-8	-3	-0.3

no.	CtBP-E1A blk	TRPML1 inh	Six1-Eya2 inh
17	8	-2	-12
18	·	6	-3
19	6	2	-1
20	-18	-3	10
21	-8	·	-5
22	·	4	-1
23	2	20	7
24	25	-8	-3

Next part:
no.	molecule	D2 PAM	TRPV1 potentiator	TRPML1 ag
25	CC(=O)CC[C@@H](C)O[C@@H]1OC(C)[C@H](O)CC1O (some centres undefined)	-9	?	-0.1
26	COc1ccc(Nc2nc(N)nc(CN3CCc4ccccc4C3)n2)cc1	-10	·	1.3
27	Cc1nn(Cc2ccc(Cl)cc2)c(C)c1NC(=O)C1CC=CCC1C(=O)O (centres undefined)	10	4	-0.5
28	COc1cccc(Oc2cn[nH]c2-c2ccc(OCC(=O)NN)cc2O)c1	-8	-6	1.0
29	COc1ccc(OC(=O)c2cc3cc(Cl)ccc3oc2=O)cc1	2	-8	0.0
30	O=C(O)Cc1ccc(NC(=S)NCc2ccco2)cc1	-16	3	0.6
31	Cc1ccc(NC(=O)COc2coc(CN3CCN(Cc4ccccc4)CC3)cc2=O)cc1	-7	?	0.1
32	COc1cc(OC)cc(-c2c(C#Cc3ccsc3)c3cc(-c4ccc(OC)c(F)c4)ccc3n2C)c1	-3	·	0.1

no.	CtBP-E1A blk	TRPML1 inh	Six1-Eya2 inh
25	·	0	12
26	-9	7	-19
27	0	19	1
28	·	-12	-1
29	-6	0	2
30	4	-10	-2
31	-8	-8	3
32	4	5	18

The last 7 entries of the part before come first, to join the parts:
no.	molecule	D2 PAM	TRPV1 potentiator	TRPML1 ag
26	COc1ccc(Nc2nc(N)nc(CN3CCc4ccccc4C3)n2)cc1	-10	·	1.3
27	Cc1nn(Cc2ccc(Cl)cc2)c(C)c1NC(=O)C1CC=CCC1C(=O)O (centres undefined)	10	4	-0.5
28	COc1cccc(Oc2cn[nH]c2-c2ccc(OCC(=O)NN)cc2O)c1	-8	-6	1.0
29	COc1ccc(OC(=O)c2cc3cc(Cl)ccc3oc2=O)cc1	2	-8	0.0
30	O=C(O)Cc1ccc(NC(=S)NCc2ccco2)cc1	-16	3	0.6
31	Cc1ccc(NC(=O)COc2coc(CN3CCN(Cc4ccccc4)CC3)cc2=O)cc1	-7	?	0.1
32	COc1cc(OC)cc(-c2c(C#Cc3ccsc3)c3cc(-c4ccc(OC)c(F)c4)ccc3n2C)c1	-3	·	0.1
33	C=CCOn1c(=O)c(-c2ccc(F)cc2)[n+]([O-])c2ccccc21	-8	-4	1.2
34	CCN(CC)S(=O)(=O)c1ccccc1/C=N\O	-21	17	0.9
35	O=C(CSc1nnc2ccc(-c3ccc(F)cc3)nn12)N1CCOCC1	-3	-3	0.4
36	COc1ccccc1C(=O)OCC(=O)NC(=O)NC1CCCC1	8	21	0.4
37	CC(C)[C@H](NC(=O)C1(c2ccccc2)CCN(C(=O)OC(C)(C)C)CC1)C(=O)O	4	14	-0.4
38	CCN(CC)c1ccc(NC(=O)CCNS(=O)(=O)c2ccc3c(c2)CCC(=O)N3)c(C)c1	-3	-6	0.1
39	CC(NC(=O)COC(=O)CCc1ccccc1)c1ccccc1 (centres undefined)	-9	-18	-0.4
40	CN(C)c1ccc(/C=N/NC(=O)C2CC2c2ccccc2)cc1 (centres undefined)	-9	25	4.5

no.	CtBP-E1A blk	TRPML1 inh	Six1-Eya2 inh
26	-9	7	-19
27	0	19	1
28	·	-12	-1
29	-6	0	2
30	4	-10	-2
31	-8	-8	3
32	4	5	18
33	·	17	2
34	-6	?	8
35	-3	-4	7
36	·	12	0
37	2	-14	8
38	·	22	-5
39	-3	24	1
40	0	14	?

(cont.)
no.	molecule	D2 PAM	TRPV1 potentiator	TRPML1 ag
41	O=C(/C=C/c1cccc([N+](=O)[O-])c1)NCCSCc1ccc(Cl)cc1	-11	-8	1.2
42	Cc1cc(C)n(C(=O)CNC(=O)c2ccc(Cl)cc2Cl)n1	-11	19	-0.2
43	C(=N/N1CCN(c2ccccc2)CC1)/c1ccncc1	-4	0	-1.0
44	COc1ccc(C(CNC(=O)c2cccc(S(=O)(=O)Nc3ccccc3OC)c2)N2CCCCC2)cc1 (centres undefined)	-37	·	0.1
45	Cc1cccc(N(C(=O)c2csnn2)C(C(=O)NC(C)(C)C)c2cccnc2)c1 (centres undefined)	-3	-6	0.0
46	CCCCNC(=O)N(O)C1N(/N=C/c2ccccc2OC)C(=S)SC1(C)C (centres undefined)	-6	-5	-1.7
47	Cc1cc(NC(=O)COC(=O)CCNS(=O)(=O)c2ccccc2)n(-c2ccccc2)n1	-19	-6	-0.3
48	CCCNC(=O)C1(C)CCCN(C(=O)/C=C/c2ccccc2)C1 (centres undefined)	-17	·	-0.2

no.	CtBP-E1A blk	TRPML1 inh	Six1-Eya2 inh
41	2	8	-8
42	5	-13	4
43	-16	6	-20
44	6	13	-6
45	14	-7	2
46	0	-14	-2
47	12	-12	0
48	9	-14	0

(next part)
no.	molecule	D2 PAM	TRPV1 potentiator	TRPML1 ag
49	COc1ccc(C(=O)NCC(=O)N2CCN(c3ccc(F)cc3)CC2)cc1	-6	?	0.5
50	COc1ccc(-c2oc3ncn4nc(Cc5ccccc5)nc4c3c2-c2ccc(OC)cc2)cc1	-2	-5	-0.8
51	COc1ccc(/C=N/Nc2ccc(C(=O)O)cc2)cc1Br	8	3	-0.4
52	CCC(c1nnnn1Cc1cccs1)N1CCN(c2nc3ccccc3s2)CC1 (centres undefined)	7	20	13
53	COc1cc(OC)c(C(=O)NC23CC4CC(CC(C4)C2)C3)cc1OC	65*	-12	·
54	CC1=NN(c2nc3ccccc3s2)C(O)(C(F)(F)F)C1 (centres undefined)	-3	-11	1.8
55	CC(=O)NC(c1ccc(N(C)C)cc1)c1cc(Cl)c2cccnc2c1O (centres undefined)	-37	·	0.7
56	CCc1ccc(N2CC(C(=O)N3CCCCCC3)CC2=O)cc1 (centres undefined)	-7	-14	0.1

no.	CtBP-E1A blk	TRPML1 inh	Six1-Eya2 inh
49	6	10	7
50	4	17	6
51	-7	0	-8
52	-6	3	-8
53	·	·	-3
54	8	-10	6
55	?	0	-81*
56	2	-15	-7

Continued.
no.	molecule	D2 PAM	TRPV1 potentiator	TRPML1 ag
57	c1ccc2c(c1)CCN(Cc1nnnn1Cc1ccc3c(c1)OCO3)C2	16	-1	-0.3
58	CNc1ccc(/C=C2\COc3ccccc3C2=O)cc1[N+](=O)[O-]	-9	0	0.0
59	CC(=O)Oc1ccc(OC(C)=O)c(S(=O)(=O)c2ccc(C)c(C)c2)c1	-6	-3	2.2
60	COc1cccc(C(=O)NCc2ccc(-c3nc4ccccc4s3)cc2)c1	11	0	-0.4
61	CC(C)c1ccc(NC(=S)NC2CCN(Cc3ccccc3)CC2)cc1	-41	0	4.2
62	COc1ccc(Cl)cc1N1C(=O)/C(=C/c2sccc2C)N=C1SCC(=O)NC1CC1	-10	·	-0.4
63	O=C(c1cccc(Oc2c(Cl)cccc2[N+](=O)[O-])c1)N1CCCCC1	3	-12	0.2
64	COc1ccc(OC2OC3COC(C)(C)OC3C(O)C2NC(C)=O)cc1 (centres undefined)	-6	2	1.3
65	COc1ccc(CNC(=O)CSc2nnnn2-c2ccc(O)cc2)cc1	-8	12	1.4
66	CC1CCCC/C1=N\NS(=O)(=O)c1ccc(Br)cc1 (centres undefined)	-20	4	-0.3
67	COc1ccc(C(=O)NCC2(c3ccc(OC)c(OC)c3)CCCC2)cc1OC	-8	·	-0.4

no.	CtBP-E1A blk	TRPML1 inh	Six1-Eya2 inh
57	2	-2	1
58	14	-14	6
59	·	9	-26
60	8	-12	-1
61	22	23	-6
62	-22	3	-13
63	-28	-10	1
64	-1	-3	11
65	3	-2	1
66	7	3	-1
67	2	-3	-2

Single entries from the entries so far.
compound 62 – TRPML1 inh: 3
compound 60 – CtBP-E1A blk: 8
